Source: PubChem BioAssay (National Center for Advancing Translational Sciences (NCATS))
NPR1 antag: human Npr1 receptor antagonism; P16066; HEK293 hNpr1 GloSensor cGMP, ANP-stimulated luminescence; Potency, µM (highest dose often 46.3 µM), for inactives: at the highest dose activity change, negative = inhibition, hits mostly inhibitors; 76,000 compounds, 1.6% hits; active = well fitted inhibition curve with a large enough effect; inconclusive = small, poorly fitted or top-dose-only effect; inactive = no such curve, though single readings can be large or run the other way;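 further: nearly all actives have a fitted effect of over 60% in size; nearly all hits also lower the signal before the agonist is added; a reference antagonist and vehicle were the controls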
Target sequence (P16066 whole entry, looked up): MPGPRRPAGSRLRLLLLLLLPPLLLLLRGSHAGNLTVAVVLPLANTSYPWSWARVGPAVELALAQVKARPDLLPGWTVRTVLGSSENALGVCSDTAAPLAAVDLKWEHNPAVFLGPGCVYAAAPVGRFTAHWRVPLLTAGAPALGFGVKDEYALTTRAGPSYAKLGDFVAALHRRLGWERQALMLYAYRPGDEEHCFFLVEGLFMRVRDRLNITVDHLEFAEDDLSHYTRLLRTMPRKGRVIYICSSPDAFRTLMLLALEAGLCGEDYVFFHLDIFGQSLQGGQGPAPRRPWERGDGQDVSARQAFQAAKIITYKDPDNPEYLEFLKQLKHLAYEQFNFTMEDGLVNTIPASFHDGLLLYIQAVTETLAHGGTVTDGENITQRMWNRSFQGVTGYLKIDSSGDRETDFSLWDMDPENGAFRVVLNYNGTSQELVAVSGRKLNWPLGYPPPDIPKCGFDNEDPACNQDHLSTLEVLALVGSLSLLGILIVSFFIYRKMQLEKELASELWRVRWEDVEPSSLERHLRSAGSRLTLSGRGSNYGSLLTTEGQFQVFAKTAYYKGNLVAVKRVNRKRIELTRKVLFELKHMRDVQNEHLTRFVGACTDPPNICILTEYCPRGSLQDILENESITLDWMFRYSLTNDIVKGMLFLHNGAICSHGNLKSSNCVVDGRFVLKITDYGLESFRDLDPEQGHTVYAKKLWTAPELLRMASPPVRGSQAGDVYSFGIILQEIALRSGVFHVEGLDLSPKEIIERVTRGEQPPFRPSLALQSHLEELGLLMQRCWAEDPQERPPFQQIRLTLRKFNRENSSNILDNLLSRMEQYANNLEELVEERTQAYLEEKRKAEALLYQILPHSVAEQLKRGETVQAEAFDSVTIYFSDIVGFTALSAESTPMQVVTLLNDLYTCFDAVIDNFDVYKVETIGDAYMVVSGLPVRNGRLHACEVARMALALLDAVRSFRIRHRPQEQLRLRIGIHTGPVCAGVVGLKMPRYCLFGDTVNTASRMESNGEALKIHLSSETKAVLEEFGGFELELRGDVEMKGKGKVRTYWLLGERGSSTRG
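Compound pre-incubated 30 min at room temperature on GloSensor-loaded HEK293 cells stably carrying hNpr1 and the pGS-40F cGMP biosensor. Stimulation uses hNppA at 0.1 nM final; luminescence is taken at baseline and 20 min post-agonist.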
Starred values were filed as active, the others as inactive; ? = inconclusive; [ ] = dose if it differs, or a comment. On the % scale 0 is the no-effect control and ±100 the full control effect; potency means the concentration at half of the fitted maximal effect. Only part of the results is shown, so the mix of outcomes need not match the whole.

no.	Structure	NPR1 antag
1	Cc1ccc(C(=O)NCc2nnc3cc(-c4nc(C5CC5)no4)ccn23)cc1	15.6%
2	CCC(C)(C)C(=O)N1CCn2c(nnc2[C@@H]2C[C@@H](O)CN2Cc2ccccc2)C1	3.9%
3	CN(CC1(C)CCOCC1)C(=O)NC1CCCC1	1.5%
4	CN(Cc1ccccc1)c1ncccc1CNC(=O)c1ccnn1C	-2.6%
5	Cc1sc2cc(C(=O)O)[nH]c2c1CN1CCCCC1	1.8%
6	O=C(c1cccnc1)N1CC[C@H](c2nnc(Cc3ccccc3)o2)C1	6.2%[70.6 µM]
7	O=C(c1ccoc1)N1CCN2CCS(=O)(=O)N(C3CC3)C(=O)C2C1 (stereo unspecified)	5.8%
8	CC(C)CC(=O)NCCC1CCN(C(=O)Nc2ccc(F)cc2F)CC1	3.4%
9	COc1ccc(CNC(=O)C2CCN(c3cc(C(F)(F)F)nc(C)n3)CC2)c(OC)c1	-8.9%
10	CCOc1cc(=O)n2c(c1C(=O)NC1CCc3ccccc31)CCCCC2 (stereo unspecified)	-2.5%
11	CCN1C(=O)CN(C(=O)c2ccco2)CC12CCOCC2	4.7%
12	CC1(c2ccccc2)N(Cc2ncccn2)C(=O)OC12CCN(Cc1ccc(F)cc1)CC2 (stereo unspecified)	-3.9%
13	O=C(Cc1csc(-c2ccccc2)n1)N1CCCC(c2ccn[nH]2)C1 (stereo unspecified)	-9.1%
14	Cc1ccc(-c2cn[nH]c2C2CCCN(C(=O)CN3CCOCC3)C2)cc1 (stereo unspecified)	8.7%
15	CCc1ccc(C(=O)N2CCC3(CC2)OCC(C(=O)NCCOC)N3C(=O)c2cccc(C)c2)cc1 (stereo unspecified)	-0.4%

no.	Structure	NPR1 antag
16	COC(=O)[C@@H]1C[C@H](NS(=O)(=O)c2cc(OC)ccc2OC)CN1C	1.5%
17	CCN(Cc1ccccc1)C(=O)[C@@H]1CCC(=O)N[C@@H]1COC	1.1%
18	CCOc1cc(=O)n2c(c1C(=O)Nc1cc(C)ccc1OC)CCCC2	5.3%
19	CCCN1CCc2[nH]cnc2C12CCN(C(=O)Cn1cc(C)c(=O)[nH]c1=O)CC2	-0.5%
20	COc1ccccc1OCCNC(=O)C1CCN(c2cn[nH]c(=O)c2)C1 (stereo unspecified)	13.8%
21	CN1c2cc(C(=O)Nc3ccc4c(c3)OCCO4)ccc2C(=O)N2CCCCCC21 (stereo unspecified)	-5.5%
22	Cn1nc2n(c1=O)CCC(NC(=O)c1cc(F)ccc1Cl)CC2 (stereo unspecified)	3.7%
23	CC1(C(=O)NCc2cccc(Cl)c2)CCc2cnc(N3CCOCC3)nc21 (stereo unspecified)	7.7%[70.6 µM]
24	O=C(c1ccc(CO)o1)N1CCc2c(nc(-c3ccncc3)[nH]c2=O)C1	3.8%
25	CCN1CCCC(c2nc3ccc(C)cc3c(=O)[nH]2)C1 (stereo unspecified)	-0.6%[70.6 µM]
26	Cc1noc2c(-c3ccncc3)cc(-c3cccs3)nc12	2.0%[70.6 µM]
27	CCCCN1CC2(CCCN(C(=O)c3ccn4nnnc4c3)C2)CCC1=O (stereo unspecified)	-0.9%
28	COC(=O)C(NC(=O)N1CCCCCCn2c(nnc2-c2ccc(F)cc2)CC1)C(C)C (stereo unspecified)	-2.0%
29	C=CCN(C)CC[C@@H]1CC[C@H](O)[C@@H](C(=O)NC2CCCCC2)O1	6.0%[70.6 µM]
30	CCOCC(=O)N1CCN(c2nnnn2-c2ccccc2)CC(O)C1 (stereo unspecified)	0.0%

Structures shown so far that have a Cl atom:
no.	Structure	NPR1 antag
22	Cn1nc2n(c1=O)CCC(NC(=O)c1cc(F)ccc1Cl)CC2 (stereo unspecified)	3.7%
23	CC1(C(=O)NCc2cccc(Cl)c2)CCc2cnc(N3CCOCC3)nc21 (stereo unspecified)	7.7%[70.6 µM]

Following part.
no.	Structure	NPR1 antag
31	CC(C)c1nnc(NC(=O)C2CC(=O)N(c3n[nH]c4cc(Br)ccc34)C2)s1 (stereo unspecified)	-5.9%
32	O=C(NC1CCCC1)N1CCCCC1c1nc(-c2cnccn2)n[nH]1 (stereo unspecified)	-5.8%
33	CC(C)OCCCNC(=O)C1Cn2cccc2C(=O)N1Cc1ccccc1 (stereo unspecified)	-4.1%
34	CCC(C)NC(=O)C(NC(=O)c1ccc(OC)cc1)C1CCN(C(=O)c2ccccc2C)CC1 (stereo unspecified)	5.6%
35	CCN1CC(c2ccccc2)CC2(CCN(c3cc(N)ncn3)CC2)C1 (stereo unspecified)	0.3%
36	Cc1cc(CNC(=O)[C@@H]2CCC[C@@H](NCc3cccnc3)CN(C)C(=O)C2)no1	-0.7%[70.6 µM]
37	Cc1ccnn1CC(=O)NCc1cccnc1Oc1cccc(C(F)(F)F)c1	-4.9%
38	CCOc1cc(=O)n2c(c1C(=O)Nc1ccc(C)cc1F)CCCC2	3.8%
39	COc1ccccc1CNC(=O)[C@@H]1Cc2cn(C)c3cccc(c23)[C@H](CC(C)C)N1	-19.7%[70.6 µM]
40	O=C(c1ccc(Oc2ccccc2)cc1)N1CCc2c(n(Cc3cccnc3)n(-c3ccccc3)c2=O)C1	-15.8%
41	Cc1noc([C@@H]2CN(C(=O)c3cn[nH]c3)C[C@H]2C(N)=O)n1	4.6%
42	COc1ccc(C2(C(=O)N3CCCC(c4nc(-c5ccccc5)no4)CCNC(=O)CC3)CC2)cc1 (stereo unspecified)	-1.2%
43	CCC(C)n1c(C(C)NC(=O)OCc2ccccc2)nc2cccnc21 (stereo unspecified)	0.0%
44	CC(=O)N1C[C@@H]2CCCN3CCC[C@@H]([C@H]23)[C@H]1CCCC(=O)N1CCC(C)CC1	8.2%
45	CN(C)C[C@@H]1CN(C)C[C@H]1NC(=O)c1ccc(F)c(F)c1	-1.9%

no.	Structure	NPR1 antag
46	CSc1ncccc1C(=O)N1C[C@@H](CN2CCCCC2)[C@@H](CO)C1	2.4%
47	COc1ccccc1-c1ccc(C(=O)N2C[C@@H](N(C)C)[C@H](C(C)C)C2)cc1	2.4%
48	CCc1nc(-c2c(-c3ccccc3)ncn2CCc2ccncc2)c(C)[nH]1	2.8%
49	O=C(Nc1cccc(Cl)c1)N[C@H]1C[C@H]2C(=O)NC[C@@H](CCC(=O)N3CCC(O)CC3)N2C1	6.4%
50	COCCNC(=O)C[C@@H]1C[C@H]2O[C@H](CNC(=O)NCCOC)[C@@H](O)[C@H]2O1	1.1%[70.6 µM]
51	Cc1cc(Cl)ccc1-n1nc(C)c([C@@H]2C=C[C@@H](NC(=O)c3ccc(N(C)C)cc3)C2)c1C	?
52	Cc1cc(NC(=O)c2ccc3c(c2)OCCN(CCC(F)(F)F)C3)ccc1F	-3.6%[70.6 µM]
53	CC(C)c1ccc(CN2CCC3(CC2)OCCN(c2ccc(F)cc2)C3=O)cc1	22.4µM*
54	COc1ccc(-c2noc([C@@H]3CCCN3C(=O)c3ccc(F)cc3)n2)cc1OC	-0.6%
55	CN1CCC2(CCC1=O)CN(CCCCOc1ccccc1)CCN2C (stereo unspecified)	6.1%
56	Cc1cccc2c(C3CCN(C(=O)c4c(Cl)cc(Cl)cc4Cl)CC3)c[nH]c12	?
57	N#Cc1ccc(C(=O)Nc2cccc(-c3nnc4n3CCCC4)c2)cc1	0.0%
58	Cc1nn(-c2ccccc2)c(C)c1[C@@H]1C=C[C@@H](NC(=O)c2ccco2)C1	35.5µM*
59	COCCN1C(=O)c2ccccc2C(C(=O)Nc2ccccc2O)C12CCCCC2 (stereo unspecified)	1.1%
60	O=C(NCc1cccnc1)[C@@H]1C[C@@H](c2ccc(F)cc2)N(CCOc2ccccc2)C1	-17.7%[70.6 µM]

The final 2 records of the section above open the next one:
no.	Structure	NPR1 antag
59	COCCN1C(=O)c2ccccc2C(C(=O)Nc2ccccc2O)C12CCCCC2 (stereo unspecified)	1.1%
60	O=C(NCc1cccnc1)[C@@H]1C[C@@H](c2ccc(F)cc2)N(CCOc2ccccc2)C1	-17.7%[70.6 µM]
61	O=C(Nc1ccccc1)Nc1ccc(=O)n2c1[C@@H]1C[C@@H](CN(C(=O)COc3ccccc3)C1)C2	3.1%
62	CC1=C[C@@H](CO)[C@H](C(C)C)C[C@H]1CC(=O)NCc1ccc(C#N)cc1	-8.7%[70.6 µM]
63	Cc1nc(C2CCN(C(=O)[C@H]3CNC[C@@H](C(=O)N4CCOCC4)C3)CC2)n[nH]1	-1.9%
64	COC(=O)CN(C)Cc1cn(-c2ccc(C)cc2)nc1-c1cccc(C)c1	-9.1%
65	COCC1(C(=O)N2CCc3c(c(C(=O)O)nn3CC3CC3)C2)CCC1	1.8%
66	Cc1ccc(CNC(=O)NCC23CCC=C2N(C)C(=O)CC3)cc1 (stereo unspecified)	1.8%
67	COCCNC(=O)[C@@H](C)C1CC[C@@]2(C)CC[C@H](NC(=O)COc3ccccc3)[C@@H](C)[C@@H]2[C@H]1O (stereo partly specified)	-8.6%
68	O=c1[nH]c(C2CCN(CC3CCCC3)CC2)nc2ccc(F)cc12	10.7%
69	COc1ccc(C2Cn3cnc(C(=O)N4CCC(C(=O)Nc5ccc(F)c(C)c5)CC4)c3CO2)cc1 (stereo unspecified)	-8.9%
70	COc1ccc(NC(=O)Cn2c(C)cc3nc4n(c(=O)c32)CCCCC4)cc1	0.3%
71	CCCc1ccc(S(=O)(=O)N(C)CC2CCOCC2)cc1	?
72	C[C@@]12CO[C@@H](CNC(=O)C3CCCC3)O[C@@H]1CC[C@]1(C)[C@@H]2CC[C@@H](O)[C@H]1CC(=O)NCc1ccccc1	-3.1%
73	c1cn(-c2ccc3cn[nH]c3c2)c(-c2cc3n(n2)CCCNC3)n1	-1.2%
74	COCCn1cnc2ccc(-c3ccc4c(c3)OCO4)nc2c1=O	8.6%[70.6 µM]
75	Cc1ccc(-n2nc3n(c2=O)CCN(C(=O)C(C)(C)C)C3)cc1	-10.6%[70.6 µM]

no.	Structure	NPR1 antag
76	CC(=O)NCC(=O)N1CCC(n2cc(-c3nc(-c4ccccc4)no3)nn2)CC1	-14.4%
77	NC1CCCN(c2cc(N3CCCC3)ncn2)C1 (stereo unspecified)	1.0%
78	Cc1ccc(C)c(-c2cc(C(=O)N3CCCC3c3nncn3C(C)C)[nH]n2)c1 (stereo unspecified)	0.2%
79	Cc1noc(C)c1CC(=O)NCC1CCN(c2cc(-c3ccccc3)[nH]n2)CC1	-0.7%
80	COc1ccc(-c2cc(N3CCN(C(=O)c4ccc(F)cc4F)CC3)n[nH]2)cc1	0.0%
81	CCC(CC)CN1CC2(CCN(C(=O)c3cn4cccnc4n3)CC2)OC1=O	7.0%
82	O=C1CC(c2ccccc2)N(C(=O)c2ccco2)CCCCCCN1 (stereo unspecified)	2.4%
83	CN1C(=O)CCCCC1C(=O)NCC1CCN(Cc2cccc(F)c2)CC1 (stereo unspecified)	-0.1%
84	Cc1ccc(-c2nc(N3CCOCC3)cc3c2CN(Cc2cnn(C)c2)C3=O)cn1	0.6%[70.6 µM]
85	CS(=O)(=O)CC[C@H](NC(=O)C1=C[C@@H](NC(=O)CCN)[C@@H](O)[C@H](O)C1)C(N)=O	6.3%[70.6 µM]
86	CCC(=O)N1CCCC(c2nc(-c3cccnn3)no2)C1 (stereo unspecified)	3.9%
87	c1ccc(CN2CCC(Cc3nncn3-c3ccccc3)C2)cc1 (stereo unspecified)	-10.8%
88	O=C1C(c2ccccc2)CC2(CCN(c3cnccn3)CC2)CN1C1CC1 (stereo unspecified)	-10.2%
89	CC(C)N1C(=O)C2(CCCCC2)C1C(=O)NCCCN1CCN(C)CC1 (stereo unspecified)	3.8%
90	CN(c1cc(=O)c2ccnc(Nc3ccn(C)n3)c2o1)C1CCOCC1	4.4%[70.6 µM]

no.	Structure	NPR1 antag
91	COc1ccc(Cn2c(C3CCN(C(=O)c4ccccc4OC)CC3)n[nH]c2=O)cc1	8.1%
92	CN1CCOc2c(C(=O)NCCc3cnc[nH]3)cc(-c3cccc4[nH]ccc34)cc21	-0.8%[70.6 µM]
93	O=C(O)C1(n2cnc3ccccc32)CCN(c2nc3ccccc3s2)CC1	2.5%
94	NC(=O)C1CCN(Cc2nnc3cc(-c4nc(-c5ccccc5)no4)ccn23)CC1	-0.2%
95	O=C(c1ccc(Cn2cccn2)o1)N1CCCC2(CCC(=O)N(C3CC3)C2)C1 (stereo unspecified)	2.1%
96	Cc1ccc(-c2cc(N3CCC(CNC(=O)c4ccc[nH]4)CC3)n[nH]2)cc1	-1.0%
97	COc1ccc(C(=O)Nc2nc3c(s2)C[C@@H]2[C@](C)(CO)[C@H](O)CC[C@@]2(C)[C@@H]3CC(=O)N(C)Cc2ccccc2)cc1	-15.1%
98	OCC1(CC2CC2)CCCN(Cc2ccccc2OC(F)F)C1 (stereo unspecified)	2.5%
99	CCS(=O)(=O)c1ccc2oc([C@H]3CCN(Cc4ccc(OC)cc4)C3)nc2c1	?
100	COc1ccc(CC(=O)NCc2cn[nH]c2-c2ccc(C)cc2)cc1	-12.7%
101	O=C(c1ccoc1)N1CCCC(CN2CCOCC2)CC1 (stereo unspecified)	5.4%
102	Cc1cc(=O)n(CC(=O)Nc2ccccc2F)c(-c2ccccc2)n1	-2.1%
103	Cc1ccc(CN2CCCOCCNC(=O)[C@@H]3CCCC[C@@H]32)o1	-0.8%
104	Cc1noc(-c2ccc(OC3CN(C(=O)c4sccc4C)C3)cc2)n1	?
105	COCCn1c(C)cc(C(=O)N2CCCC(Cc3noc(-c4cnccn4)n3)C2)c1C (stereo unspecified)	16.2%
106	COc1ccc(NC(=O)c2cc(-c3ccc[nH]3)n[nH]2)c(OC)c1	-16.9%
